LASV entry inh – qHTS for Inhibitors of binding or entry into cells for Lassa Virus. Lassa virus pseudotype entry inhibition, cell reporter; control for the full effect not named in the record. Potency, µM (highest dose often 37.9 µM), inactives show at the top dose activity change, negative = inhibition, usual class: inhibitors. 1.2% of 300,000 active; active means well fitted inhibition curve with a large enough effect; inconclusive means small, poorly fitted or top-dose-only effect, or effect the other way; inactive means flat fitted curve, though single readings scatter; tested in HEK293 cells; note: % is set by controls: 0 for no effect and ±100 for the full control effect; nearly all actives have a fitted effect of over 50% in size; luciferase read-out
MARV entry inh – qHTS for inhibitors of binding or entry into cells for Marburg Virus | Marburg virus pseudotyped entry inhibition, cell reporter; control for the full effect not named in the record; about a third of the inactives were read at about 46 µM | Potency, µM (series often up to 37.8 µM), inactives show at the top dose activity change, negative = inhibition, most hits filed as inhibitors | 1.8% of 300,000 active | AID 540276, 2011; active = well fitted inhibition curve with a large enough effect; inconclusive = small, poorly fitted or top-dose-only effect, or effect the other way; inactive = flat fitted curve, though single readings scatter; tested in HEK293 cells; about a fifth of its hits are not listed in these tables; note: % is set by controls: 0 for no effect and ±100 for the full control effect; luciferase read-out
RE007 growth inh – qHTS Assay for Inhibitors of the HIV-1 protein Vpr. S. pombe RE007 Vpr strain, BacTiter-Glo ATP luminescence, 24 h; control for the full effect not named in the record. Potency, µM (doses to about 92.2 µM), for the others: at the top dose activity change, negative = less growth. 0.21% of 360,000 active; active = well fitted falling curve with a large enough effect; inconclusive = small, poorly fitted or top-dose-only effect; inactive = no such curve, though single readings can be large or run the other way;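 note: % is set by controls: 0 for no effect and ±100 for the full control effect; nearly all actives have a fitted effect of over 50% in size; the assay follows cell death caused by Vpr and the record does not say whether a fall means rescue or toxicity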
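Fission yeast RE007 carrying one integrated HIV-1 vpr copy, seeded at OD 0.01 in PMG+AL medium with 23 nL pinned compound. Grown 24 h at 30 degrees; viability read by BacTiter-Glo luminescence after 5 min.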
Cruzain inh Det – qHTS Assay for Promiscuous and Specific Inhibitors of Cruzain (with detergent); purified cruzain, Z-FR-AMC fluorescence, 0.01% Triton; 0.43% of 200,000 active; Potency, µM, inactives show max response, negative = inhibition, usual class: inhibitors;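 note: plate controls were neutral wells for no effect and buffer without enzyme for full effect; nearly all actives have a fitted effect of over 40% in size; top concentration of the series not given in the record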
Target sequence (P25779 123-467 limits assumed): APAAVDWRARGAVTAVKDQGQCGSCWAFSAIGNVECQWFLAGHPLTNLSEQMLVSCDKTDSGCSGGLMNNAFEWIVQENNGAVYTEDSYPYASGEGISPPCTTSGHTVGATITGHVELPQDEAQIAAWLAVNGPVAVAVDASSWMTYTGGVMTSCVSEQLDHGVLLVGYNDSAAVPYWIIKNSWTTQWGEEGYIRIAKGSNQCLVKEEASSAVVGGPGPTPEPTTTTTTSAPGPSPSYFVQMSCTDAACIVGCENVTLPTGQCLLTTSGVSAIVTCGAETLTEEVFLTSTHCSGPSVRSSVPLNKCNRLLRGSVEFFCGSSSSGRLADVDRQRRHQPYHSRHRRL
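Compounds were screened in titration against cruzain (1.5 nM) with 0.01% Triton X-100 to counter colloidal aggregation. Activity was the AMC fluorescence increase over 60 s after adding 2 uM Z-FR-AMC at pH 5.5.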
Cruzain inh noDet – qHTS Assay for Promiscuous and Specific Inhibitors of Cruzain (without detergent); Potency, µM, without a hit: max response, negative = inhibition, hits mostly inhibitors; 2.3% of 200,000 active; purified cruzain, Z-FR-AMC fluorescence, no detergent;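 note: plate controls were enzyme without inhibitor for no effect and buffer without enzyme for full effect; nearly all actives have a fitted effect of over 40% in size; top concentration of the series not given in the record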
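Detergent-free condition (0.00005% Triton X-100) in acetate buffer pH 5.5 with DTT. 1.5 nM enzyme and compound were pre-mixed 15 min, then 2 uM Z-FR-AMC substrate added; reaction progress from fluorescence change between first and third reads (60 s).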
2A StopGo – High Throughput Screening for Foot and Mouth Disease Virus Antivirals; human cells with a luciferase reporter of 2A StopGo recoding; control for the full effect not named in the record; Potency, µM (titrated, usually from 57.9 µM), inactives show at the top dose signal change, negative = less light; 1.2% of 410,000 active; active = well fitted falling curve with a large enough effect; inconclusive = small, poorly fitted or top-dose-only effect; inactive = no such curve, though single readings can be large or run the other way; tested in HEK293T cells; note: % is set by controls: 0 for no effect and ±100 for the full control effect; nearly all actives have a fitted effect of over 45% in size; luciferase light after 4 h
NS1 function inh – qHTS Assay for Inhibitors of Influenza NS1 Protein Function; S. cerevisiae slowed by influenza A NS1, growth recovery by OD600; Potency, µM (series often up to 46.1 µM), for the others: at the highest dose activity, positive = more growth; 0.4% of 270,000 active; active means well fitted rising curve with a large enough effect; inconclusive means small, poorly fitted or top-dose-only effect; inactive means no such curve, though single readings can be large or run the other way; note: nearly all actives have a fitted effect of over 50% in size
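A cell-based growth assay was used: compounds that relieve NS1-induced slow growth of budding yeast raise OD600. Assay medium was yeast nitrogen base with ammonium sulphate and -URA supplement, pH 6.0, with 2% galactose.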
SARS PLP yeast – qHTS of Yeast-based Assay for SARS-CoV PLP; S. cerevisiae expressing SARS-CoV PLpro, growth rescue; control for the full effect not named in the record; Potency, µM (titrated, usually from 32.9 µM), for the others: top-dose activity, positive = growth rescue; 0.19% of 330,000 active; AID 485353, 2010; active means well fitted rising curve with a large enough effect; inconclusive means small, poorly fitted or top-dose-only effect; inactive means no such curve, though single readings can be large or run the other way; note: 0% is about no effect; nearly all actives have a fitted effect of over 55% in size; growth read by luminescence after 48 h
An asterisk follows results filed as active; ? = inconclusive; · = not tested or not shown; & = joins results of further samples; [ ] = dose if it differs, or a comment. Unless noted, calls come from the whole dose curve; as a rule, active = well fitted curve in the direction sought with a large enough effect; inconclusive = small, poorly fitted or top-dose-only effect, or another doubt; inactive = no such curve, though single readings can be large; an effect the other way counts as inactive or inconclusive. Potency is the fitted concentration of half-maximal effect.

SMILES	LASV entry inh	MARV entry inh	RE007 growth inh	Cruzain inh Det	Cruzain inh noDet	2A StopGo	NS1 function inh	SARS PLP yeast
Cc1cc(C(=O)Nc2sc3c(c2C#N)CCC3)no1	-13%[14.3 µM]	?	-21%	-3.9%	-5%	24%	-33%	-9%
O=C(O)c1n[nH]c2ccccc12	-3%	2%[46.1 µM]	-2%	3.8%	1%	3%	-5%	2%
COc1ccc(/C=C(/C#N)C(=O)Nc2ccc(C)cc2C)cc1C(=O)O	10%	0%	2%	3.8%	-4%	0%	-1%	4%
Cc1ccc(Oc2cc([N+](=O)[O-])cc3c2C(=O)Nc2ccccc2O3)cc1	?	?	-2%	-1.8%	-27%	?	2%	10%
CCc1c(C)nc2cc(-c3ccc(OC)c(OC)c3)nn2c1NCC1CC1	?	?	26%	-7.6%	-6%	-17%	-34%	-20%
COc1ccc(Cl)cc1NC(=O)CSc1nnc(C)n2c1cc1occc12	1%[46.1 µM]	·	·	1.0%	-4%	0%	·	·
COC(=O)c1ccc2c(=O)n(CCCN3CCOCC3)c(=S)[nH]c2c1	18%	8%	5%	-5.0%	-22%	·	-10%	2%
CCN(c1cccc(C)c1)S(=O)(=O)c1ccc2c(c1)CCCN2C(C)=O	?	?	6%	·	·	-14%	11%	7%
O=[N+]([O-])c1ccc(N2CCOCC2)c(S(=O)(=O)N2CCOCC2)c1	3%[46.1 µM]	10%[46.1 µM]	-9%	·	·	-12%	·	0%
O=C(NCC1CCCO1)C1CCN(S(=O)(=O)c2cccc3cccnc23)CC1 (configuration not stated)	·	·	8%	1.8%	-2%	-18%	13%	-3%
CN1C(=O)C(C)(C)c2cc(S(=O)(=O)NCC3CCC(C(=O)NCc4ccccc4)CC3)ccc21 (configuration not stated)	·	·	0%	·	·	-16%	-5%	21%
COc1cc(N/C=C(\C(C)=O)c2ccccc2)cc(OC)c1	·	7%	·	-15%	6%	·	-3%	3%
CCOC(=O)C(Sc1nn(C)c(=S)s1)C(C)=O (configuration not stated)	2%	-3%	-14%	-4.9%	5%	15%	-7%	-10%
CC(=O)Nc1ccc(-c2csc(Nc3ccc(Cl)cn3)n2)cc1	-24%	?	6%	·	·	25µM*	·	-3%
C#CCn1c(C2CC(=O)N(c3ccc(OC)cc3)C2)nc2ccccc21 (configuration not stated)	1%[46.1 µM]	?	·	1.3%	2%	3%	·	·
CCCn1nnc(NC(=O)c2cccc(OCC)c2)n1	-13%	21%	0%	1.9%	5%	31%[activator]	-12%	-2%
Cc1cccnc1NC(=O)c1ccc(Cl)c(S(=O)(=O)N2CCCC2)c1	·	·	6%	·	·	12%	-2%	2%
CCOC(=O)Cc1c(C)nc2cc(-c3ccc(C)cc3)[nH]n2c1=O	6%	-18%[46.1 µM]	14%	0.9%	3%	54%[activator]	-1%	2%
CC1([N+](=O)[O-])COP(=O)(Nc2cccc(Br)c2)OC1 (configuration not stated)	-2%	?	6%	·	·	-13%	·	·
COc1cccc(C2C=C(c3ccc(Br)s3)Nc3ncnn32)c1OC (configuration not stated)	-14%	-10%&-4%	-6%	-6.7%	?	?	-20%	-7%
Cc1ccc(S(=O)(=O)N2CCN(C(=O)/C=C/c3ccco3)CC2)cc1	0%	-3%	4%	-5.2%	-12%	-18%	20%	2%
CCCc1c(C(=O)N/N=C/C(C)=C/c2ccccc2)nnn1-c1nonc1N	·	·	-16%	·	·	-7%	-6%	-2%
O=C1CC(N2CCC(c3nc4ccccc4s3)CC2)C(=O)N1 (configuration not stated)	0%	0%	?	4.0%	-3%	5%	0%	5%
COc1ccc(/C=N/n2c(-c3cc(C)[nH]n3)n[nH]c2=S)cc1	?	0%	1%	·	·	-4%	0%	-1%
Fc1ccccc1CNCCc1ccc2c(c1)OCO2	·	·	-4%	·	·	17%	0%	-8%

Following part.
SMILES	LASV entry inh	MARV entry inh	RE007 growth inh	Cruzain inh Det	Cruzain inh noDet	2A StopGo	NS1 function inh	SARS PLP yeast
Cc1ccc(C(=O)NC(=S)NCC2CCCO2)cc1 (configuration not stated)	3%	?	-14%	-0.7%	-1%	45%[activator]	8%	24%
O=c1oc2c3c4c(cc2s1)CCCN4CCC3	2%	0%	?	?	?	-8%	-137%	-35%
O=C(O)c1nc(N2CCCC2)ncc1Cl	11%	15%	13%	9.0%	0%	2%	?	-2%
CSc1cccc(NC(=O)C2CCN(S(=O)(=O)c3ccc(F)cc3)CC2)c1	?	-20%	0%	2.5%	0%	·	-59%	·
CCOC(=O)N1CCN(C(=O)Cn2ccc3ccccc3c2=O)CC1	?	-23%[46.1 µM]	14%	5.8%	-2%	-20%	6%	-8%
COc1ccc(Br)cc1CNc1ccc(O)cc1	-16%	-3%&-3%	?	-3.2%	-20%	-28%	4%	-9%
O=C(NC1CCCC1)c1cc(Cl)ccc1[N+](=O)[O-]	8%	?	14%	-3.5%	-3%	-17%	4%	6%
CCCCNC(=O)C1CCN(S(=O)(=O)c2c(C)noc2/C=C\c2ccc(OC)cc2)CC1	·	·	10%	15%	-7%	-3%	0%	?
O=C(CCc1c[nH]c2ccccc12)Nc1ncccc1O	16%[46.1 µM]	6%[46.1 µM]	2%	·	·	8%	-18%	-4%
O=C(CCCn1c(=O)c2ccccc2n(Cc2ccccc2)c1=O)NCc1ccco1	-24%	?	13%	8.6%	-5%	?	-9%	17%
Cn1c(NC(=O)c2cc(Br)ccc2Cl)cc(=O)n(C)c1=O	·	·	-1%	2.8%	2%	-11%	2%	0%
Cc1cc(C)n2nc(C(=O)Nc3nnc(C4CC4)s3)nc2n1	?	18%	14%	4.2%	-8%	6%	1%	-3%
CC1=NN(C(=O)CSCc2ccccc2)C(O)(c2ccc(Cl)cc2)C1 (configuration not stated)	-5%	-8%	-6%	·	·	-3%	-2%	0%
Cn1c(=O)[nH]c(=O)c2c1nc(CN1CCN(c3cccc(Cl)c3)CC1)n2CCc1ccccc1	-54%[14.3 µM]	?	15%	-3.6%	?	-30%	5%	-3%
COc1ccc(NC(=O)c2ccc(-n3c(C)ccc3C)cc2)c(OC)c1	?	?	8%	·	·	-21%	·	0%
Cc1nc(N2CCC(C(N)=O)CC2)c2c(-c3cccs3)csc2n1	15%	-18%[46.1 µM]	18%	·	·	-15%	·	3%
COc1ccccc1CNC(=O)c1cccc(N2CCCS2(=O)=O)c1	11%[46.1 µM]	·	·	2.4%	-5%	-24%	·	·
O=C(O)CCc1nn2c3ccccc3nc2n(CCN2CCCCC2)c1=O	0%	27%	10%	-1.0%	1%	16%	-6%	9%
COC(=O)c1ccc2c(c1)C(NC(C)=O)CCc1cc(OC)c(OC)c(OC)c1-2 (configuration not stated)	?	?	0%	·	·	-14%	·	·
COc1ccc(CN2CCC(=O)NC2=O)cc1	-1%	20%&20%	6%	6.3%	2%	-17%	-11%	1%
Cc1cc(C)nc(SCC(=O)NN)n1	22%[46.1 µM]	-9%&-9%[46.1 µM]	16%	·	·	-2%	-1%	0%
O=C(Nc1ccc(S(=O)(=O)Nc2ncccn2)cc1)c1ccccc1Cl	2%[46.1 µM]	·	-7%	-0.6%	-5%	7%&-18%	5%	·
S=c1[nH]nc(CCc2ccccc2)n1Cc1ccccc1	-16%	-29%	0%	4.6%	-8%	-22%	6%	6%
COc1ccc(COC(=O)c2cccc(S(=O)(=O)N3CCN(C(C)=O)CC3)c2)cc1	-29%	?	-16%	·	·	?	·	3%
CCO[C@H]1OC(C(=O)NCc2ccccc2)=C[C@@H](C2CCCCC2)[C@@H]1CCCO	·	·	-5%	·	·	-17%	-1%	-1%

(cont.)
SMILES	LASV entry inh	MARV entry inh	RE007 growth inh	Cruzain inh Det	Cruzain inh noDet	2A StopGo	NS1 function inh	SARS PLP yeast
O=C(NC(=S)Nc1ccc(S(=O)(=O)N2CCCCC2)cc1)c1ccccc1	-8%	6%	2%	-1.9%	1%	0%	2%	11%
CCC(=O)OCC(=O)Nc1cc([N+](=O)[O-])ccc1OC	-5%	-27%[46.1 µM]	5%	·	·	2%	·	-4%
CCOc1ccc(Oc2ccccc2NC(=O)C2=COCCO2)cc1	?	?	31%	·	·	-20%	·	0%
COc1ccc(S(=O)(=O)Nc2ccc(N3CCOCC3)cc2)cc1	·	·	-7%	·	·	-24%	-1%	-2%
Cc1cccc2c(C(=O)Nc3ccc(Br)cc3)cc(-c3ccccn3)nc12	-26%	?	1%	·	·	-15%	0%	0%
O=C(Cn1nnc2ccccc21)Nc1ccc(Cl)cn1	-2%	6%[46.1 µM]	7%	·	·	10%	·	-5%
CCOC(=O)c1cccc(-c2ccc(C=O)o2)c1	14%	?	3%	-7.4%	1%	31%[activator]	-23%	-34%
NC(=O)C1CCN(CC(=O)NC2CCCc3ccccc32)CC1 (configuration not stated)	-1%[46.1 µM]	10%[46.1 µM]	0%	·	·	3%	-1%	-1%
CC(C)(C)Nc1nc(Oc2ccc(=O)n(-c3ccccc3)n2)nc(N2CCOCC2)n1	-29%	?	32%	0.3%	8%	-27%	-38%	4%
CCOc1ccccc1NC(=S)N(CCOC)C1CCN(C(C)=O)CC1	-1%	-2%[46.1 µM]	0%	·	·	9%	-2%	-1%
CN(CC(=O)Nc1ccc(F)cc1)C(=O)COC(=O)c1ccc(-c2ccccc2)cc1	2%	-21%	-23%	·	·	-14%	·	-4%
C/C(Nc1ccc(Cl)cc1)=C(/C#N)C(N)=O	-5%	-2%	3%	5.2%	-3%	·	-3%	7%

A different layout for part of the listing above.
Values in the order – LASV entry inh, MARV entry inh, RE007 growth inh, Cruzain inh Det, Cruzain inh noDet, 2A StopGo, NS1 function inh, SARS PLP yeast
Cc1cccc2c(C(=O)Nc3ccc(Br)cc3)cc(-c3ccccn3)nc12
  -26%, ?, 1%, ·, ·, -15%, 0%, 0%
CCC(=O)OCC(=O)Nc1cc([N+](=O)[O-])ccc1OC
  -5%, -27%[46.1 µM], 5%, ·, ·, 2%, ·, -4%
CC(C)(C)Nc1nc(Oc2ccc(=O)n(-c3ccccc3)n2)nc(N2CCOCC2)n1
  -29%, ?, 32%, 0.3%, 8%, -27%, -38%, 4%
